RE007 growth inh – less growth of the S. pombe RE007 Vpr strain; S. pombe RE007 Vpr strain, BacTiter-Glo ATP luminescence, 24 h; control for the full effect not named in the record; Potency, µM (series often up to 92.2 µM), for the others: at the top dose activity change, negative = less growth; actives 0.21% (n = 360,000); AID 651644; active = well fitted falling curve with a large enough effect; inconclusive = small, poorly fitted or top-dose-only effect; inactive = no such curve, though single readings can be large or run the other way;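 further: on the % scale 0 is the no-effect control and ±100 the full control effect; nearly all actives have a fitted effect of over 50% in size; the assay follows cell death caused by Vpr and the record does not say whether a fall means rescue or toxicity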
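Fission yeast RE007 carrying one integrated HIV-1 vpr copy, seeded at OD 0.01 in PMG+AL medium with 23 nL pinned compound. Grown 24 h at 30 degrees; viability read by BacTiter-Glo luminescence after 5 min.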
SARS PLpro yeast – SARS-CoV PLP inhibition in yeast | Potency, µM (titrated, usually from 32.9 µM), for the others: at the highest dose activity, positive = growth rescue | actives 0.19% (n = 330,000) | S. cerevisiae expressing SARS-CoV PLpro, growth rescue; control for the full effect not named in the record; further: 0% is about no effect; nearly all actives have a fitted effect of over 55% in size; growth read by luminescence after 48 h
NS1 inh – influenza NS1 inhibition; S. cerevisiae slowed by influenza A NS1, growth recovery by OD600; Potency, µM (doses to about 46.1 µM), inactives show top-dose activity, positive = more growth; actives 0.4% (n = 270,000); AID 2326; further: actives are rising curves; nearly all actives have a fitted effect of over 50% in size
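Growth recovery, yeast-based: influenza A NS1 expressed in S. cerevisiae causes slow growth, and suppressors are detected by OD600. The parent strain without NS1 is used as positive control.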
Cruzain inh Det – blocks cruzain activity in presence of Triton detergent. P25779. purified cruzain, Z-FR-AMC fluorescence, 0.01% Triton. Potency, µM, for the others: max response, negative = inhibition, hits mostly inhibitors. actives 0.43% (n = 200,000). AID 1478; active means well fitted curve in the direction sought with a large enough effect; inconclusive means small, poorly fitted or top-dose-only effect, or another doubt; inactive means no such curve, though single readings can be large; an effect the other way counts as inactive or inconclusive;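 further: plate controls were neutral wells for no effect and buffer without enzyme for full effect; nearly all actives have a fitted effect of over 40% in size; top concentration of the series not given in the record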
Target sequence (P25779 123-467 limits assumed): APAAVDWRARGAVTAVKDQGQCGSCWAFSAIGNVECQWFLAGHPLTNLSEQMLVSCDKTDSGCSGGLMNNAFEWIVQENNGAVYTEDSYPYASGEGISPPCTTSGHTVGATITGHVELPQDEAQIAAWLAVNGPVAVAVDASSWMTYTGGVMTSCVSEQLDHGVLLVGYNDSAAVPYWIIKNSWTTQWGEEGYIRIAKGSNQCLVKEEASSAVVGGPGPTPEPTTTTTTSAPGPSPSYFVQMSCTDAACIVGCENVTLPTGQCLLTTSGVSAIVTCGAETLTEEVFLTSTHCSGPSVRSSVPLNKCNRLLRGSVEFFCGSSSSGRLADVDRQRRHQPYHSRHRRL
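Purified cruzain (1.5 nM final) was preincubated with compounds for 15 min at room temperature in 100 mM sodium acetate pH 5.5, 5 mM DTT, 0.01% Triton X-100. Reaction started with 2 uM Z-FR-AMC; AMC fluorescence change over 60 s gave activity.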
Marburg entry inh – inhibitors of Marburg virus binding or cell entry; Marburg virus pseudotyped entry inhibition, cell reporter; control for the full effect not named in the record; about a third of the inactives were read at about 46 µM; Potency, µM (titrated, usually from 37.8 µM), for inactives: at the highest dose activity change, negative = inhibition, actives largely listed as inhibitors; actives 1.8% (n = 300,000); AID 540276; active = well fitted inhibition curve with a large enough effect; inconclusive = small, poorly fitted or top-dose-only effect, or effect the other way; inactive = flat fitted curve, though single readings scatter; tested in HEK293 cells; about a fifth of its hits are not listed in these tables; further: on the % scale 0 is the no-effect control and ±100 the full control effect; luciferase read-out
LASV entry inh – blocks Lassa virus binding to or entry into cells. Lassa virus pseudotype entry inhibition, cell reporter; control for the full effect not named in the record. Potency, µM (highest dose often 37.9 µM), for the others: at the highest dose activity change, negative = inhibition, hits mostly inhibitors. actives 1.2% (n = 300,000); active means well fitted inhibition curve with a large enough effect; inconclusive means small, poorly fitted or top-dose-only effect, or effect the other way; inactive means flat fitted curve, though single readings scatter; tested in HEK293 cells; further: on the % scale 0 is the no-effect control and ±100 the full control effect; nearly all actives have a fitted effect of over 50% in size; luciferase read-out
Cruzain inh noDet – blocks cruzain activity in detergent-free assay | P25779 | purified cruzain, Z-FR-AMC fluorescence, no detergent | Potency, µM, without a hit: max response, negative = inhibition, usual class: inhibitors | actives 2.3% (n = 200,000) | AID 1476; active means well fitted curve in the direction sought with a large enough effect; inconclusive means small, poorly fitted or top-dose-only effect, or another doubt; inactive means no such curve, though single readings can be large; an effect the other way counts as inactive or inconclusive;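 further: plate controls were enzyme without inhibitor for no effect and buffer without enzyme for full effect; nearly all actives have a fitted effect of over 40% in size; top concentration of the series not given in the record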
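Detergent-free condition (0.00005% Triton X-100) in acetate buffer pH 5.5 with DTT. 1.5 nM enzyme and compound were pre-mixed 15 min, then 2 uM Z-FR-AMC substrate added; reaction progress from fluorescence change between first and third reads (60 s).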
StopGo reporter – lowers the luciferase signal of an FMDV 2A StopGo reporter; human cells with a luciferase reporter of 2A StopGo recoding; control for the full effect not named in the record; Potency, µM (highest dose often 57.9 µM), inactives show at the highest dose signal change, negative = less light; actives 1.2% (n = 410,000); active = well fitted falling curve with a large enough effect; inconclusive = small, poorly fitted or top-dose-only effect; inactive = no such curve, though single readings can be large or run the other way; tested in HEK293T cells; further: on the % scale 0 is the no-effect control and ±100 the full control effect; nearly all actives have a fitted effect of over 45% in size; luciferase light after 4 h
* marks the source's active call; other numbers are inactive results; ? = inconclusive; . = no result given; & = joins results of further samples; [ ] = dose if it differs, or a comment. Unless noted, the call rests on the fitted dose curve; in most records, active means well fitted rising curve with a large enough effect; inconclusive means small, poorly fitted or top-dose-only effect; inactive means no such curve, though single readings can be large or run the other way. Potency means the concentration at half of the fitted maximal effect.

Each structure is followed by: RE007 growth inh	SARS PLpro yeast	NS1 inh	Cruzain inh Det	Marburg entry inh	LASV entry inh	Cruzain inh noDet	StopGo reporter
CCCOC(=O)CSc1nc(N2CCOCC2)c2c(c1C#N)CC(C)(C)OC2
  8%	4%	1%	.	?	-24%[46.1 µM]	.	-19%
CCn1cc(/C=N\NC(=O)C2(C)CC2(Cl)Cl)c(C)n1 (centres undefined)
  -5%	-5%	-7%	-1.6%	27%	4%	-14%	-11%
CCc1cc(C(=O)NNC(=O)CCl)sc1C
  7%	?	.	.	?	?	.	15%
O=C(COC(=O)c1cccs1)Nc1ccccc1[N+](=O)[O-]
  -4%	-1%	-27%	.	.	.	.	1%
O=C(Nc1cccc(O)c1)C1CC(c2cccc(Br)c2)=NO1 (centres undefined)
  1%	-1%	-22%	.	-17%	?	.	-1%
COCc1cc(=O)[nH]c(=S)[nH]1
  23%	6%	10%	0.4%	10%	-1%	13%	-19%
Cc1ccc(N2CCN(CCCCN3C(=O)C4CCCN4C3=O)CC2)cc1 (centres undefined)
  16%	2%	24%	-0.2%	-19%	4%	1%	-17%
Cc1noc(NS(=O)(=O)c2ccc(NC(=O)CCCOc3ccc(Cl)cc3Cl)cc2)c1C
  -5%	1%	-32%	-27%	1%	1%	12%	-17%
O=C(NCc1ccc(N2CCCC2=O)cc1)Nc1ccccc1
  -1%	2%	-2%	2.0%	24%	2%	-2%	14%
COC(=O)C1=C(C(=O)OC)[C@@H]2N(C)c3ccccc3[C@@]23C[C@@H](CO)N(C(=O)NCCBr)C3=N1
  -8%	1%	-8%	.	.	.	.	-9%
Cc1ccccc1C(=O)Nc1ccccc1NC(=O)c1ccccc1C
  12%	1%	3%	.	-5%[46.1 µM]	-27%[46.1 µM]	.	-28%
O=c1[nH][nH]c2cc(=O)n(-c3ccc(Cl)cc3)nc12
  11%	5%	.	.	-2%[46.1 µM]	8%[46.1 µM]	.	-19%
COc1ccc2c(c1)CCc1cn3nc(C)cc3nc1-2
  -22%	0%	-3%	.	5%[46.1 µM]	3%	.	-1%
O=C(CSc1nccn1Cc1ccc(F)cc1)Nc1nc2ccccc2s1
  .	.	.	-7.5%	.	?	-5%	-7%
O=C(C1CCCN(S(=O)(=O)c2cccc3nonc23)C1)N1CCN(c2ccccc2)CC1 (centres undefined)
  17%	11%	-2%	-1.4%	?	-10%	5%	.
CCN(CC)C(=O)C1CCCN(c2ncnc3onc(C)c23)C1 (centres undefined)
  .	.	.	-1.4%	.	-3%[46.1 µM]	-8%	-16%
O=C(COC(=O)CCC(=O)c1ccc(F)cc1)Nc1ccc2[nH]c(=O)[nH]c2c1
  -1%	3%	.	.	0%	-8%	.	-3%
Oc1oc(-c2ccccc2)nc1C=NCc1ccncc1
  11%	5%	9%	-13%	-25%	10%	-3%	41%[activator]
CCCCCC(=O)Nc1ccc(N2CCN(C(=O)CCC)CC2)cc1
  -11%	2%	-9%	0.1%	?	0%	-2%	-13%
O=C(Nc1nnc(SCc2cccnc2)s1)C1CC(=O)N(c2ccccc2)C1 (centres undefined)
  -13%	-5%	1%	.	-8%	-2%	.	-17%
Cc1nc(-c2ccccn2)sc1C(=O)Nc1ccc(F)cc1F
  -8%	3%	5%	-1.7%	?	13%	-12%	32%[activator]
CC(CNC(=O)Cn1ccc2cc(S(=O)(=O)N3CCCCCC3)ccc21)c1ccccc1 (centres undefined)
  .	.	.	-5.1%	.	-11%[46.1 µM]	6%	-18%
Cc1ccc(C)c(OCc2cc(C(=O)NC3CCOC(C)(C)C3)no2)c1 (centres undefined)
  1%	-2%	10%	.	5%	-13%	.	-11%
Cc1nn(C(C)C(=O)Nc2ccccc2Cl)c(=O)c2nn(-c3ccccc3)c(C)c12 (centres undefined)
  12%	-7%	-5%	.	?	?	.	24%
CCOC(=O)c1[nH]c(COC(=O)c2ccccc2NC(=O)c2ccco2)c(C(=O)OCC)c1C
  -2%	-3%	1%	-6.1%	-1%&-1%	-10%	5%	-7%
CCN(c1ccccc1)S(=O)(=O)c1ccc(OC)c(NC(=O)c2cc(Cl)ccn2)c1
  -3%	-5%	.	.	-21%	2%	.	-15%
Cc1noc(C)c1CN1C(=O)NC2(CCc3ccccc3C2)C1=O (centres undefined)
  -7%	-2%	1%	2.3%	?	-7%	-3%	?
COc1cc(C(=O)NNC(=O)c2cccn2C)cc(OC)c1OC
  4%	2%	.	.	7%	-2%	.	-4%
COc1ccc(CCNCC(O)COc2cccc(Br)c2)cc1 (centres undefined)
  -20%	-10%	.	.	?	-17%	.	-2%
O=C(CN1CCc2ccccc2C1)Nc1ccc(F)cc1F
  -1%	0%	1%	.	.	.	.	-7%
Cc1ccc2[nH]c(=O)c(CN(Cc3ccccc3Cl)C(=O)N3CCOCC3)cc2c1
  -10%	1%	-6%	-1.4%	-28%	0%	14%	0%
COc1ccccc1CNC(=O)CCCn1nc(C)c2c(C)n(-c3ccccc3)nc2c1=O
  -2%	2%	-10%	.	.	.	.	-20%
CCn1c(-c2ccccc2)ccc(C#N)c1=O
  -8%	4%	3%	-5.8%	-16%	-1%	-6%	-20%
C=CCn1cc(C(=O)OC)c(=O)c2cc(S(=O)(=O)N(CC)CC)ccc21
  -11%	14%	-6%	-7.7%	2%	27%	-3%	.
Cc1ccc(-n2ncc(C(=O)NCCN3CCc4ccccc4C3)c2C2CCN(C(=O)OC(C)(C)C)CC2)cc1C
  .	.	.	-2.3%	.	-6%[46.1 µM]	-4%	-12%
CCOC(=O)C(=Cc1ccc(F)cc1)C(=O)OCC
  .	-7%	-118%	0.8%	.	.	-7%	.
CCOC(=O)Cn1nnnc1CN(Cc1ccccc1)Cc1cc2cc(CC)ccc2[nH]c1=O
  0%	4%	-49%	-2.7%	?	?	?	.
COC(=O)c1ccc(C(=O)NC2CCCN(Cc3ccc(Cl)cc3)C2)nc1 (centres undefined)
  -8%	2%	-1%	.	.	.	.	0%
CC(=O)Nc1ccc(S(=O)(=O)NCC(=O)OC(C)c2ccccc2Cl)cc1 (centres undefined)
  12%	-5%	1%	2.4%	17%	8%	3%	2%
CCC(=O)N1CC(=O)Nc2ccc(Br)cc2C1c1ccccc1 (centres undefined)
  16%	1%	4%	.	7%[46.1 µM]	20%[46.1 µM]	.	-13%
O=C(NCC1COc2ccccc2O1)c1ccco1 (centres undefined)
  -26%	4%	-7%	0.9%	2%	0%	0%	10%
COc1ccc(C(=O)Nc2nc3nc(-c4ccccc4)cc(=O)n3[nH]2)cc1
  13%	8%	8%	-1.9%	15%	0%	-2%	-1%
Cc1nn(S(=O)(=O)c2ccc(Cl)cc2)c(C)c1S(=O)(=O)N1CCOCC1
  6%	3%	-11%	.	.	.	.	-10%
O=C(COC(=O)c1ccc([N+](=O)[O-])s1)NCc1ccccc1
  6%	-99%	-37%	-2.5%	?	4%	7%	-8%
C[C@H](NC(=O)[C@H]1N2C(=O)c3ccccc3C2SC1(C)C)C(=O)NCc1ccncc1 (some centres undefined)
  6%	2%	-5%	.	5%[46.1 µM]	?	.	2%
COc1ccc(-n2nc(C(=O)N3CCN(c4ccccc4OC)CC3)c3c4ccccc4n(C)c3c2=O)cc1Cl
  .	.	.	5.2%	21%[46.1 µM]	4%[46.1 µM]	18%	-21%
Clc1ccc(Cc2nnc(-c3cccs3)o2)cc1
  16%	-3%	-45%	-0.2%	-2%	7%	-5%	60%[activator]
CCCOc1cccc(C(=O)Nc2cccc(NC(=O)c3ccc(C(C)(C)C)cc3)c2)c1
  .	.	.	-1.6%	.	16%[46.1 µM]	-11%	27%
COC(=O)C1CCN(CC(=O)NC(=O)Nc2ccccc2F)CC1
  -4%	0%	.	.	-2%	-2%	.	32%[activator]
CCc1ccc(/C=C2\SC(=S)N(CCCC(=O)Nc3nccs3)C2=O)cc1
  -4%	-6%	15%	3.0%	2%	5%	?	14%
O=S(=O)(Nc1nc2ccc(S(=O)(=O)N3CCCC3)cc2s1)c1ccc(F)cc1
  -2%	6%	3%	-9.0%	2%	3%	16µM*	34%[activator]
O=C(NC(=S)NNC(=O)[C@H]1C[C@@H]1c1ccccc1)c1cccc(F)c1
  0%	2%	-1%	.	-14%[46.1 µM]	-28%[46.1 µM]	.	-4%
CCOC(=O)C1CCCN(C(=O)c2ccc(Cl)c(S(=O)(=O)N3CCCCC3)c2)C1 (centres undefined)
  -16%	1%	.	.	?	-10%[46.1 µM]	.	-30%
COC(C[C@H](O)C[C@@H](O)COCc1ccccc1)OC
  -16%	3%	0%	.	.	.	.	8%
COC(=O)/C(=C/c1cccnc1)NC(=O)c1ccccc1
  -5%	8%	4%	0.5%	26%	0%	1%	-16%
CC(=O)SCCC(=O)Nc1ccccc1
  -3%	-2%	18%	-4.3%	-12%	24%[14.3 µM]	-5%	13%
CCc1nnc(NC(=O)CSc2nnc(-c3cccnc3)n2CC)s1
  7%	-1%	11%	2.1%	6%	-7%	-3%	-9%
COC(=O)c1ccccc1NC(=O)CNc1cc(Cl)ccc1N1CCOCC1
  1%	0%	-35%	2.4%	?	?	-21%	-11%
COc1ccc(-c2nc3cc(C(C)C)ccc3o2)cc1NC(=O)c1ccccc1[N+](=O)[O-]
  .	.	.	-2.4%	31%[46.1 µM]	5%[46.1 µM]	-12%	48%[activator]
CCOc1ccc(CCNC(=O)c2oc(=O)c3ccccc3c2-c2ccc(C)cc2)cc1OCC
  .	.	.	-7.3%	2%[46.1 µM]	?	-4%	-18%
CC(C)OCCCNC(=O)CNC(=O)c1cccs1
  11%	4%	-3%	2.2%	16%	21%	6%	.
COc1ccc(-c2nc(-c3cccnc3)no2)cc1OC
  -8%	-2%	-7%	.	?	7%[46.1 µM]	.	43%[activator]

High-throughput results from PubChem.
